Compound activity as filed in PubChem.
Vif TR-FRET: inhibitors of Vif binding to APOBEC3G peptide, primary screen, biochemical, TR-FRET, GST-Vif 1-94, biotin-A3G peptide, dose response retest (AID 1117319) | TR-FRET GST-Vif / biotin-A3G peptide binding; higher % means a stronger effect; test concentration not given here; strong numbers were not always called active | inhibition, %, or IC50 in µM where a hit was titrated | 0.57% of 260,000 active;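 active = above the screen mean plus three standard deviations and confirmed in dose response; inconclusive = results disagree or hit not tested in dose response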;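 also: Vif residues 1-94 fused to GST binding biotinylated APOBEC3G peptide 110-148; 0% = full assay without inhibitor and 100% = GST in place of GST-Vif; retest series ran down from 100 µM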
RanGTP-Imp inh: inhibitors of RanGTP-importin-beta interaction, primary screen, biochemical, FRET, CFP-Ran, YFP-importin-beta, homogeneous | Ran GTPase (GTP-bound) - importin-beta complex | cell-free CFP-Ran/YFP-importin-beta FRET ratio | 1.1% of 300,000 active | inhibition, % (concentration not given with the values);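 active = most replicates above 15%; inconclusive = exactly half above 15%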;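 also: 0% = DMSO wells and 100% = Ran loaded with GDP instead of GTP; wells of about 40 µL received 100 nL stock; the first replicate is given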
B2AR ag: beta2AR agonists driving receptor internalization, primary screen, cell-based, FAP fluorogen, flow cytometry. Beta-2 adrenergic receptor (Homo sapiens), P07550. Am2.2-beta2AR cells; reference of the scale not given here. response, % (test concentration not listed). 0.43% of 340,000 active. AID 504454, 2011;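 active = response above a set limit, near 3 SD of response in nonfluorescent compounds, cut at about 42% in these data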;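 also: stock transfer was 100 nL into about 11 µL; a reference agonist was the positive control; negative values mostly stem from fluorescent compounds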
Target sequence (P07550 whole entry, looked up): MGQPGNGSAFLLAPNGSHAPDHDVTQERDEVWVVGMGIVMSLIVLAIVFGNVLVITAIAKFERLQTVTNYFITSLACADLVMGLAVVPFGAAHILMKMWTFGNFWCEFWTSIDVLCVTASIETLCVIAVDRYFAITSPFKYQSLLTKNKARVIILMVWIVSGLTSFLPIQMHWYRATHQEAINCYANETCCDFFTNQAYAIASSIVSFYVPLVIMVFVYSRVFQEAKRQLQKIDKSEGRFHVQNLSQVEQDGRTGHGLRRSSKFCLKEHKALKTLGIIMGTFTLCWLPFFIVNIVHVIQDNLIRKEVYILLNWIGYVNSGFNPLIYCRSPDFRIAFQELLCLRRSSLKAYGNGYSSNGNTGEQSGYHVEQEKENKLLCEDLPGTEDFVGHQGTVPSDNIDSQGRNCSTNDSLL
Calb FLC: C. albicans growth inhibition with fluconazole, primary screen, CaCi-2 strain, Alamar Blue fluorescence; AID 1979, 2009; C. albicans CaCi-2 (fluconazole-resistant clinical isolate) + fluconazole, 48 h; 0.57% of 300,000 active; growth inhibition, % (concentration not given with the values);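 active = most replicates above 75%; inconclusive = exactly half above 75%; inactive = most below 75%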;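 also: all wells also contain fluconazole at 8 µg/ml as a sub-toxic cotreatment; 0% = median of DMSO wells and 100% = median of geldanamycin control wells; wells of about 8 µL received 7.5 nL stock; the first replicate is given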
LANA-H2B inh: blockers of LANA interaction with H2A/H2B – biochemical, FP readout, HTS, primary screen; AID 2629, 2010; 0.6% of 320,000 active; cell-free LANA-H2A/H2B peptide, fluorescence polarization; Protein LANA1 (Human herpesvirus 8 type P (isolate GK18)), Q9QR71; inhibition, % (test concentration not listed); in the data active = inhibition mostly above about 10%, no sharp cut-off; inactive = mostly below about 6.7%;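 also: stock transfer was 7.5 nL into about 10 µL; 0% = median of vehicle wells and 100% = median of positive control wells; one replicate is shown; the record names a cut of 25% in any replicate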
ALR inh: inhibitors of human ALR sulfhydryl oxidase, primary screen, biochemical, H2O2 detection, HRP-luminol luminescence, single point. FAD-linked sulfhydryl oxidase ALR (Homo sapiens), P55789. purified ALR, DTT oxidation. inhibition, % (concentration not given with the values). 3.8% of 290,000 active. AID 485317, 2010;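 active = mean and each replicate at 75% or more; inconclusive = only one of the two met; inactive = neither met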;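 also: stock transfer was 7.5 nL into about 7.5 µL; 0% = neutral wells and 100% = wells with inactivated enzyme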
Target sequence (P55789 whole entry, looked up): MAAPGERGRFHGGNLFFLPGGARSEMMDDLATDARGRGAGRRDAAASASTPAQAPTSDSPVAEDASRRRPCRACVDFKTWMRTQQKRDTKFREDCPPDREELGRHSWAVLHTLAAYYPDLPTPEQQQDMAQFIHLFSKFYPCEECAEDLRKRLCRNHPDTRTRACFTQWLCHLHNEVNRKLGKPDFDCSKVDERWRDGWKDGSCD
HNF4A DNA FP: change in binding of human HNF4A to DNA, primary screen, biochemical, fluorescence polarization, FITC-DNA; Hepatocyte nuclear factor 4-alpha (Homo sapiens), P41235; 1 h; activity change, % at 10 µM; 0.3% of 360,000 active; AID 1224865, 2016; in the data active = activity change above about 30%, passing the limit was not always enough;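 also: controls were the assay level and a saturating level of protein; the project sought stronger binding though the title names inhibitors; some compounds called inactive have numbers as strong as hits; positive values seem to mean higher polarization but the record does not say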
Target sequence (P41235 whole entry, looked up): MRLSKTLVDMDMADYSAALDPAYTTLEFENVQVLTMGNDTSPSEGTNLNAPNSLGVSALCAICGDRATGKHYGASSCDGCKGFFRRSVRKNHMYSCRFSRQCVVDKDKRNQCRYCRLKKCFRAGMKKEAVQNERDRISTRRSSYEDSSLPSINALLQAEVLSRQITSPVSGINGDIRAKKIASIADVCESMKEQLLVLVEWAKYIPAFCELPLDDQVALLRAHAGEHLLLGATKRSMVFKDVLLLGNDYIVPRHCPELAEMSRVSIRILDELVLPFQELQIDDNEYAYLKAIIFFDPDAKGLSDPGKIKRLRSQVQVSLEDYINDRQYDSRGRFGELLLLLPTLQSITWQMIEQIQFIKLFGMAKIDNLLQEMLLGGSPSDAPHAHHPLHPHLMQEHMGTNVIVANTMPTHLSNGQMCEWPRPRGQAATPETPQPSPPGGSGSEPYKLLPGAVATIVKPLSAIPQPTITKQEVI
* hit, by the source's call; ? = inconclusive; . = not tested or not shown.

mol	Vif TR-FRET	RanGTP-Imp inh	B2AR ag	Calb FLC	LANA-H2B inh	ALR inh	HNF4A DNA FP
CCCCC1(C2CCCC2)NC(=O)NC1=O (centres undefined)	2%	.	1	.	.	.	-1.6
Cc1[nH][nH]c(=O)c1C(c1ccc(-c2cccc(C(=O)O)c2)o1)c1c(C)[nH][nH]c1=O	.	-1.7	0	-7	3.9	36	-6.2
Cn1c(=O)c2[nH]c(-c3ccccc3)c(O)c2n(C)c1=O	.	-255	-16	20	.	.	-26
CN(C)S(=O)(=O)Oc1ccsc1C(=O)Nc1ccc(Br)cc1	-3%	8.4	3	63	4.6	0	-0.4
Cc1nc2scc(C)n2c(=O)c1S(=O)(=O)Nc1ccc(N2CCN(C(=O)C(C)C)CC2)cc1	.	4.2	-7	-2	4.4	43	2.2
CN=CC1=C(O)c2ccccc2C1=O	-2%	-2.4	-11	16	6.2	-1	-0.7
CCN(C[C@H]1N[C@@](C)(C(=O)OC)[C@H]2C(=O)N(C)C(=O)[C@@H]12)S(=O)(=O)c1ccccc1	7%	.	-2	.	.	.	-2.4
O=C(O)COc1ccc(/C=N/NC(=O)c2cccc3ccccc23)cc1	4%	-1.7	-3	-3	-0.4	.	1.5
CC(=O)c1cc(CC=C(C)C)c(O)cc1O	3%	0.9	0	-13	-3.9	83*	1.2
CC1CCc2[nH]c3ccc(C(=O)N(C)CC(=O)Nc4ccc(F)cc4)cc3c2C1 (centres undefined)	43%	7.8	-3	8	7.2	10	-3.3
COc1ccc(C)cc1NC(=O)COC(=O)c1ccccc1SCC(=O)N1CCCC1	-2%	?	6	1	4.1	-1	-1.1
Cc1cc(NC(=O)CSc2ccc3nnc(CCNS(=O)(=O)c4ccccc4)n3n2)no1	5%	-1.6	0	-20	1.1	-5	-0.1
O=C1NCCCCC1NS(=O)(=O)c1ccc(F)c(F)c1 (centres undefined)	21%	5.7	-8	-12	-0.1	-2	-0.2
Cc1ccc2cccc(OCCCOc3ccccc3F)c2n1	.	1.0	11	-19	0.8	5	-0.2
O=C1CCC[C@@H]2Cc3[nH]c4c(Cl)ccc(Cl)c4c3[C@@H]3CCN1[C@H]23	.	-0.6	0	19	-0.9	-10	2.3

Following part.
mol	Vif TR-FRET	RanGTP-Imp inh	B2AR ag	Calb FLC	LANA-H2B inh	ALR inh	HNF4A DNA FP
Cc1cc(=O)oc2cc(OCC(=O)OC(C)C(=O)NC3CCCC3)ccc12 (centres undefined)	.	1.6	-1	-9	1.5	-6	0.4
Cc1ccc(F)cc1NC(=O)Cc1ncc(C(F)(F)F)cc1Cl	0%	-2.8	-3	-16	-3.1	16	4.7
COc1cc(/C=C(\C#N)c2nc3ccccc3[nH]2)ccc1O	.	-13	-6	76*	-9.9	99*	51*
Cc1ccc(S(=O)(=O)N/N=C/c2ccc(C#N)cc2)cc1	.	-1.9	-2	2	-0.2	4	3.1
NC(=O)CCC(=O)N1CCCC(C(=O)c2ccc(C(F)(F)F)cc2)C1 (centres undefined)	.	1.0	-6	-6	1.0	2	-3.0
CCc1ccc(S(=O)(=O)N2CCN(C(=O)C3CCN(C(C)=O)CC3)CC2)cc1	.	2.8	4	1	-0.9	-2	1.2
CN(c1ccc([N+](=O)[O-])cc1C(=O)Nc1ccccc1)C1CCCCC1	-3%	9.3	-14	1	2.8	-1	-1.6
Cc1noc(C)c1CSCC(=O)N(C)CC(=O)Nc1ccc(F)c(F)c1F	-5%	-2.3	0	1	2.0	-1	0.4
COC(=O)c1cn(CC(=O)N2CCCCCC2)c2ccccc12	2%	3.0	-9	0	13	-25	-0.5
COC(=O)[C@@H]1C[C@@H](C(=O)O)[C@H](C)C1(C)C	.	.	-4	.	1.2	-7	1.5
Cc1ccc(-c2cc(-c3ccco3)c3c(N)c(C(=O)NN)oc3n2)cc1	12%	-21	-4	-3	0.7	-7	11
CC1CN(Cc2nc3c(c(=O)n(C)c(=O)n3C)n2CCCO)CC(C)O1 (centres undefined)	1%	?	0	-3	-2.1	-1	-5.3
O=C(NCc1ccccc1Cl)C1CCCN(c2ncnc3c2nc2n3CCCCC2)C1 (centres undefined)	.	3.4	-4	16	-0.1	-5	1.4
Cn1cc(/C=C(\NC(=O)c2ccccc2)C(=O)NCCN2CCOCC2)c2ccccc21	.	0.8	10	-1	-3.9	34	4.5
Cc1cc(Cl)ccc1OCCNC(=S)NC(=O)c1cccnc1	.	2.6	-9	2	-1.5	0	-5.0

Next section
mol	Vif TR-FRET	RanGTP-Imp inh	B2AR ag	Calb FLC	LANA-H2B inh	ALR inh	HNF4A DNA FP
Cc1ccc(-c2nc3ccc([N+](=O)[O-])cc3[nH]2)cc1	-5%	2.5	12	-40	3.3	-16	4.7
Cc1nc(Nc2cccc(C(C)O)c2)c2nnn(Cc3ccccc3F)c2n1 (centres undefined)	4%	-2.1	0	18	-4.9	.	1.7
COc1ccc(CN(C)C(=O)c2ccc(OCC(=O)N3CCOCC3)c(OC)c2)cc1	-13%	.	0	.	-4.9	-1	-0.3
CC1=NCCN1S(=O)(=O)c1ccc(Br)c(C)c1	29%	2.5	-3	6	-2.0	-3	-0.8
CCOc1ccc2nc(SCC(=O)NC3CCCc4ccccc43)sc2c1 (centres undefined)	25%	-4.9	-8	-10	-4.6	-13	1.7
Cc1cccc(-c2noc(CCC(=O)NC3CCCC3)n2)c1	.	7.9	.	21	2.8	-3	.
COc1ccc(N2CCN(S(=O)(=O)c3ccc(OC)c(C(=O)N4CCOCC4)c3)CC2)cc1	.	3.5	4	-5	-0.8	.	-5.7
CCC(=O)Nc1ccc(C(=O)COC(=O)CCN2C(=O)C3CC=CCC3C2=O)cc1 (centres undefined)	-3%	-0.8	6	-5	-1.1	5	7.8
COc1ccc(N2CCN(C(=O)CCNS(=O)(=O)c3ccc(Br)s3)CC2)cc1	5%	0.3	-12	-4	3.7	48	-0.8
COC(=O)CN(c1ccccn1)S(=O)(=O)c1ccccc1	-3%	-2.2	-2	0	-5.2	-3	-1.7
CCc1ccc(C(=O)CSc2n[nH]c(-c3ccncc3)n2)cc1	0%	0.5	7	28	8.1	4	-0.1
O=C(c1ccccc1)N(Cc1nc2ccccc2c(=O)[nH]1)C1CCCC1	-12%	-4.4	-3	-3	-7.9	3	0.1
O=C(CCN1C(=O)C2CC=C(Cl)CC2C1=O)NCc1ccccc1 (centres undefined)	9%	-0.2	-3	-7	4.2	-7	0.8
O=C(CN1C(=O)NC2(CCCCCCC2)C1=O)N1CCc2ccccc2C1	-1%	-0.8	-2	4	-4.0	-7	2.2
CC(OC(=O)CCCN=C1NS(=O)(=O)c2ccccc21)C(=O)Nc1ccccc1[N+](=O)[O-] (centres undefined)	-5%	3.9	3	-1	0.6	.	0.7

The listing continues:
mol	Vif TR-FRET	RanGTP-Imp inh	B2AR ag	Calb FLC	LANA-H2B inh	ALR inh	HNF4A DNA FP
Clc1ccc2nc(-c3ccc4c(c3)OCO4)cn2c1	-3%	1.8	-3	-4	-6.3	73	1.6
Cc1ccc(NC(=O)Cc2ccsc2)cc1Cl	4%	0.7	-9	-7	4.5	5	-2.1
COc1ccc(-c2csc(NC(=O)c3c(OC)cccc3OC)n2)cc1	.	0.8	-4	5	-1.0	.	-0.3
CNC(=O)CN(C)S(=O)(=O)c1ccc(F)cc1	78%	-4.1	-7	0	7.7	-7	-1.3
COc1ccc([C@H]2CC(=O)C=C(c3ccc4ccn(C)c4c3)C2)cc1	.	.	4	.	-4.9	1	2.3
CCCOP(=O)(c1ccc(N(C)C)cc1)C(O)c1cc(OC)c(OC)c(OC)c1 (centres undefined)	-2%	-3.4	-2	-11	2.6	1	-3.7
O=C(Nc1cccnc1)C1CCN(S(=O)(=O)c2cccs2)CC1	8%	?	-3	33	-0.2	.	0.6
CC(=O)c1ccc(NC(=O)Cn2cnc(S(=O)(=O)N3CCC(C)CC3)c2)cc1	-7%	-2.1	-5	-1	1.7	1	-0.7
COc1ccc(S(=O)(=O)N2CCOCC2)cc1NC(=O)CSc1nnnn1C1CC1	1%	.	1	.	-1.7	1	2.7
Cc1ccc(CCNC(=O)C2CCN(S(=O)(=O)c3cccc4nonc34)CC2)cc1	?	2.0	4	20	-0.2	-4	1.0
CN(C)C(CNC1CC(C)(C)NC(C)(C)C1)c1cccc(F)c1 (centres undefined)	-6%	-3.8	2	4	-3.7	-1	3.9
CCOc1ccc(-n2cc(C(=O)c3cc(Cl)ccc3O)cc(C#N)c2=O)cc1	.	-0.2	10	9	3.0	1	8.8
C[C@H](NC(=O)C1CC(=O)N(c2ccc(F)cc2)C1)C(=O)N1CCCCC1 (some centres undefined)	.	2.5	4	.	-0.1	-2	2.8
COc1cc(OC)c(OC)cc1/C=N/NC(=O)C[n+]1ccccc1	.	-0.3	1	3	0.7	-11	-3.2
COc1ccc(COC(=O)c2ccc(Cl)c(S(=O)(=O)N3CC(C)OC(C)C3)c2)cc1 (centres undefined)	-3%	2.1	3	-9	0.5	-1	-3.4

Following part:
mol	Vif TR-FRET	RanGTP-Imp inh	B2AR ag	Calb FLC	LANA-H2B inh	ALR inh	HNF4A DNA FP
COC(=O)C1=C(CS(=O)(=O)c2ccc(Cl)cc2)NC(=O)NC1c1ccc(O)cc1 (centres undefined)	10%	2.8	4	0	-3.5	1	-0.7
COCCN(C(=O)/C=C/c1ccccc1)c1c(N)n(Cc2ccccc2)c(=O)[nH]c1=O	18%	4.5	-3	-13	4.1	-6	-11
CCOC(=O)c1ccc(OCCOc2ccccc2C)cc1	2%	1.9	-2	8	-0.3	.	2.4
O=C(Cc1nc2ccccc2[nH]1)c1ccc([N+](=O)[O-])cc1	.	2.7	18	25	3.2	7	2.4
O=C(COC(=O)/C(=C/c1cccs1)c1cccs1)NC(c1ccccc1)c1ccccc1	-14%	3.5	-8	21	2.1	0	-0.6
C=CCN(CC=C)C(=S)Nc1ccc(OC)c(OC)c1	1%	?	7	-9	1.5	.	-2.4
N#Cc1c(NCCO)nc(NCc2ccccc2)c2c1CCN(Cc1ccccc1)C2	25%	137*	.	4	-1.0	-9	.
O=C(NCCc1nc(-c2ccccc2)cs1)c1ccc(Br)cc1	-6%	7.8	-2	-13	0.4	-4	-3.2
CC(NC(=O)CSc1nc2c(c(C(F)(F)F)n1)CCc1ccccc1-2)c1ccccc1 (centres undefined)	-24%	6.2	24	-5	-0.5	-12	1.8
O=C(Nc1cccnc1)C1CCC(CNS(=O)(=O)c2cccc3nsnc23)CC1 (centres undefined)	.	-0.4	-3	-11	-3.7	-4	11
COc1cc2ccccc2cc1C(=O)Nc1ccc(Cl)cn1	.	-0.8	-3	2	-2.0	-6	2.1
CCC(=O)Nc1ccc2c(c1)nc(CCNC(=O)c1ccco1)n2C	.	-1.2	-12	-3	-3.3	-1	3.2
CCN(CC)S(=O)(=O)c1cccc(C(=O)N[C@H](C(=O)OCC(=O)Nc2ccccc2)C(C)C)c1	-2%	-2.0	2	5	0.6	-1	2.6
Cc1cccc(OCC(=O)OC(C)C(=O)Nc2ccc(S(=O)(=O)N3CCCCC3)cc2)c1 (centres undefined)	4%	6.7	-2	24	.	.	-2.4
Nn1c(C2CCC2)nc2cc(Cl)ccc2c1=O	.	-3.1	-5	-10	8.2	.	0.0
CC(=O)Nc1ccc(S(=O)(=O)Nc2cccc(-c3cn4c(n3)SCC4)c2)cc1	9%	-0.3	-30	-24	0.7	31	3.2
